TAR Tat displ = TAR RNA-Tat peptide displacers, HIV-1, primary screen, biochemical, FRET, FAM/TAMRA-labeled Tat | z-score (test concentration not listed) | actives 0.6% (n = 100,000) | HIV-1 TAR RNA, Tat peptide displacement FRET; active compounds read high | AID 1259389, 2018;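 note: score is relative to mean and SD of negative controls; some compounds called inactive have numbers as strong as hits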
CDC25B CDK2 inh = primary biochemical HTRF screen for blockers of M-phase inducer phosphatase 2 binding to CDK2/cyclin A | z-score (no concentration beside the values) | actives 0.72% (n = 94,000) | HTRF CDC25B-CDK2/CyclinA binding, anti-His/anti-Flag; active compounds read high | AID 1259370, 2018;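 note: score is relative to mean and SD of negative controls; strong numbers were not always called active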
* hit, by the source's call; . = not tested or not shown.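 Rule for the calls: active = z-score from 3 up in half or more of its runs; inactive = the rest.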

SMILES	TAR Tat displ	CDC25B CDK2 inh
CC1CCC(NC(=O)CCS(=O)(=O)c2ccc3c(c2)NC(=O)C(C)S3)CC1 (configuration not stated)	1.5	.
CCn1c2ccccc2c2nnc(SCC(=O)Nc3nccs3)nc21	-0.06	-2.1
CCOC(=O)c1c(NC(=O)CN2CCCCCC2)sc2c1CCCC2=O	.	-1.2
O=C(N1CCC(n2nc(-c3ccccc3)oc2=O)CC1)C1(c2ccccc2)CCCC1	0.39	0.18
COc1ccc(Nc2nnc(-n3nc(C)cc3C)c3ccccc23)cc1OC	1.2	.
CCCCN(C)S(=O)(=O)c1ccc2c(c1)CC(C)N2C(C)=O (configuration not stated)	2.6	.
Cn1nc(-c2ccccc2F)c2cc(C(=O)NCc3ccc4c(c3)OCO4)sc21	.	-1.1
CSc1ccc(-c2nc3c(c(=O)[nH]2)Cc2cc(F)ccc2O3)cc1	-0.01	-1.2
O=C(Nc1ccc(S(=O)(=O)c2ccc(NC(=O)c3ccco3)cc2)cc1)c1ccco1	0.52	.
CCOC(=O)N1CCC(n2c(SCC(=O)c3ccc(Cl)cc3)nc3ccsc3c2=O)CC1	0.64	.
CCOc1ccc(NC(=O)N2CCn3c(C)ccc3C2C(C)C)cc1 (configuration not stated)	-0.52	.
N#C/C(=C\c1ccc(Cl)cc1Cl)C(=O)c1ccsc1	.	-0.89
CC1=C(C(=O)Nc2cc(C(=O)NC3CCCc4ccccc43)ccc2C)SCCO1 (configuration not stated)	1.8	.
Cc1ccc2c(c1)N(C(=O)N1CCC(C(=O)N3CCOCC3)CC1)CC(C)O2 (configuration not stated)	1.3	.
COC(=O)c1c(NC(=O)c2nc(S(C)(=O)=O)ncc2Cl)sc2c1CCC2	2.7	-1
CSc1ncc(C(=O)NC(C)c2ccccc2)c(C(F)(F)F)n1 (configuration not stated)	0.41	.
Cc1ccc(-c2c(Nc3ccc(C)c(F)c3)c(=O)c2=O)cc1	1.2	.
Cc1c(N)cccc1-c1nn2c(C)nnc2s1	1	-1.1
CC(=O)OCCOCn1cnc2c(=O)[nH]c(N)nc21	1.3	1.9
Cc1ccc(N2C(=O)C3C(c4cccc(Cl)c4)OC4(C(=O)c5ccccc5C4=O)C3C2=O)cc1 (configuration not stated)	-0.25	-0.85
COc1ccc(N2C(=O)CC(N3CCN(c4ccccn4)CC3)C2=O)cc1 (configuration not stated)	1.1	-0.38
Clc1ccc(-c2noc3ncnc(Nc4ccc5c(c4)OCCO5)c23)cc1	0.07	0.21
COc1ccc(S(=O)(=O)N2CCN(c3cc(N(C)C)nc(C)n3)CC2)cc1	0.67	-0.62
Cc1c(C(=O)N2CCCCC2)c(S(=O)(=O)NCc2cccs2)c(C)n1C	-0.28	.
CSc1sc(-c2nc(C(C)(C)C)cs2)c2c1C(=O)CCC2	.	-2.9
O=C(CSc1nc2c(c(=O)[nH]1)CCC2)Nc1ccccc1Br	0.54	-0.23
O=C(NCCc1cnc[nH]1)c1cnc2sc(N3CCCC3)nn2c1=O	0.89	-0.57
Cc1nn(CC(=O)NC2CC2)c(=O)c2cc3ccccc3n12	0.51	-0.43
CSc1c(NC(=O)/C=C\C(=O)O)cccc1C(F)(F)F	.	-0.87
NC(=O)C1CCN(S(=O)(=O)c2ccc3c(c2)NC(=O)CS3)CC1	2.3	.
COCCNC(=S)Nc1ccc2nc3c4ccccc4c4ccccc4c3nc2c1	.	11*
O=C(O)c1cc(-c2cccc(O)c2)nc2n[nH]c(-c3ccc(Br)cc3)c12	1.8	.
CCCCN(CC)CCNc1ncnc2onc(C)c12	0.41	.
Cc1cccc(-n2nc(C)c3c(C)cc(=O)oc32)c1	-1.4	0.13
CC1=C(C(=O)OCC(C)C)C(c2ccccc2)C2=C(CC(c3ccccc3)CC2=O)N1 (configuration not stated)	1.2	-1.6
O=C(CN1C(=O)CCSc2ccccc21)NC1CCCCC1	.	-0.57
COc1ccc(-c2csc(Nc3ccc(S(=O)(=O)Nc4cc(C)on4)cc3)n2)cc1C	.	-0.76
Fc1ccc(-c2nnc3sc(CCc4ccccc4)nn23)cc1	1.5	0.31
Clc1ccccc1-n1cc(-c2ccccc2)c2c(N3CCOCC3)ncnc21	0.01	-1.4
CCc1ccc(-n2nc(C)c3c(C(=O)O)cc(C)nc32)cc1	0.69	.
Cc1ccc(N2CC(O)=C(c3nc4ccc(C)cc4[nH]3)C2=N)cc1	0.75	-1.7
COc1cccc(C2C3=C(NCCN=C3c3ccc(Cl)cc3)C(=O)N2c2ccccc2)c1 (configuration not stated)	.	-2
Cc1ccc(-c2c(NC(C)c3ccccc3)c(=O)c2=O)cc1C (configuration not stated)	2.6	.
CN(c1ccc(F)cc1)S(=O)(=O)N1CCCC(C(=O)NCc2ccco2)C1 (configuration not stated)	3.7	.
O=C(NNC(=S)Nc1ccccc1C(F)(F)F)C1CC1	.	-3.8
Cc1nn2c(=O)cc(COC(=O)c3ccc(F)cc3)nc2s1	0.47	.
CCC(C(=O)NCCc1ccco1)n1nc(C)c2sc3ccccc3c2c1=O (configuration not stated)	-2	-0.76
Cc1nc2sc(C(c3ccc(Cl)cc3)N3CCOCC3)c(O)n2n1 (configuration not stated)	.	-0.99
COc1ccc(-n2nnc(-c3nc(-c4ccc(C)cc4)no3)c2N)cc1	-0.24	.
CCc1ccc(OCc2nnc(SCc3cc(=O)c4cc(C)cc(C)c4[nH]3)n2C)cc1	0.28	.
O=C(NCc1csc(-c2cccs2)n1)[C@H]1CSCN1C(=O)c1cccc(F)c1	1.6	.
O=C(NCCc1ccsc1)c1cc2ccccn2n1	2.9	-2.9
Fc1ccccc1Nc1nc2ccccc2c2nncn12	3.4	.
Cn1c(=O)[nH]c(=O)c2c1ncn2CCCN	.	-1.5
CCOC(=O)C1=C(C)NC2=C(C(=O)CC(c3ccc(OC)cc3)C2)C1c1ccc(OC)cc1 (configuration not stated)	0.77	-0.24
CC(=O)NC(C)c1nc2ccccc2n1C (configuration not stated)	0.32	-1.1
Cc1ccc(Nc2nc(-c3ccncc3)nc3ccccc23)cc1	.	-2.3
CC(=O)N1CCc2cc(Br)cc(S(=O)(=O)N3CCC4(CC3)OCCO4)c21	.	0.65
CCc1ccc(CN=C2NS(=O)(=O)C(c3ccc(Cl)cc3)=C2C)cc1	-1.4	-3.8
O=C(NCCCN1CCc2ccccc2C1)C1CCN(c2nc3ccccc3n3cccc23)CC1	1.6	.

Fetched by structure from the entries so far (two):
SMILES	TAR Tat displ	CDC25B CDK2 inh
COc1ccc(-n2nnc(-c3nc(-c4ccc(C)cc4)no3)c2N)cc1	-0.24	.
O=C(NCCc1ccsc1)c1cc2ccccn2n1	2.9	-2.9

Following part
SMILES	TAR Tat displ	CDC25B CDK2 inh
COc1ccc(N2CCN(S(=O)(=O)c3ccc(-c4cc(C(F)(F)F)on4)s3)CC2)cc1	1.3	.
CCC(O)c1nc2ccccc2n1CCCOc1c(C)cccc1C (configuration not stated)	2.5	-0.09
CCCN(CCC)S(=O)(=O)c1ccc(C(=O)NC(=S)Nc2ccc(F)cc2)cc1	.	-2.2
Cc1cc2c(cc1S(=O)(=O)N(C)Cc1ccco1)OCC(=O)N2	1.8	.
CN(C)/C=N/C(=S)N1CCOCC1	.	-1.7
CC1CCN(c2ccc3nnc(CCC(=O)NCc4ccc(CN5CCOCC5)o4)n3n2)CC1	0.57	.
COC(=O)c1sc2ccccc2c1Cl	1.9	1.3
C=COC(=O)CSc1nc(C)c(CC)c(C)c1C#N	0.75	-0.78
COc1ccc(C2C(C(=O)OC(C)C)=C(C)NC3=C2C(=O)CCC3)cc1Br (configuration not stated)	1.4	0.82
Cc1cc(C(F)(F)Sc2ccc(Cl)cc2)n[nH]1	.	5.8
O=C(Cc1csc(-c2ccccc2)n1)Nc1nncs1	0.49	-1.6
O=C(c1cccnc1)N1CCN(Cc2ccc3c(c2)OCO3)CC1	.	-0.51
Cc1nc2c(c(C)nn2C)c(C)c1CCC(=O)NC1CCCCC1	1.5	-0.4
COc1ccccc1CNc1nc(NCCO)nc2c1cnn2C	1.1	.
COc1ccc([C@@H]2CC(=O)c3c(O)cc(O[C@@H]4O[C@H](CO[C@H]5O[C@@H](C)[C@H](O)[C@@H](O)[C@H]5O)[C@@H](O)[C@H](O)[C@H]4O)cc3O2)cc1O	0.58	.
Cc1cc(C)n(-c2nc3cc(Cl)ccc3nc2N2CCN(c3ccccn3)CC2)n1	-0.29	.
CC1=C(O)c2ccccc2C(=O)C1=O	.	-2.5
Cc1occc1-c1nnc(SCC(=O)c2ccc(Oc3ccccc3)cc2)o1	-2	-1.2
Cc1onc(-c2ccccc2)c1CNC(=O)c1cnn(-c2ccccc2)c1C	.	-0.49
Cc1ccnc(NC(=O)Nc2cn(C)c(=O)c3ccccc23)c1	-0.96	.
O=C(CCC(=O)N1CCSc2ccccc21)N1CCN(c2ccccn2)CC1	0.62	.
CC(C)(C)c1ccc(C(=O)OCc2cc(=O)n3nc(C4CC4)sc3n2)cc1	0.7	.
CCOC(=O)c1cc(-c2ccc(S(=O)(=O)Nc3cccc(SC)c3)s2)on1	-0.79	.
NCc1nc2cccnc2n1Cc1ccc(Cl)cc1	-3	-1.8
Cc1ccc(CNS(=O)(=O)c2ccc3[nH]c4c(c3c2)CCCCC4)o1	1.9	.
O=C(CCCCn1c(=O)[nH]c2ccsc2c1=O)NC1CCCCC1	-1.3	-0.94
Cn1c(NC(=O)c2cccc(Cn3cc(Cl)cn3)c2)nc2ccccc21	-2.9	-5.7
Cc1ccc(-c2cc3nccc(-c4cc(F)ccc4O)n3n2)cc1	-0.96	-1.1
COC(=O)C(Cc1csc2ccc(Cl)cc12)NC(=O)c1ccc(Cl)cc1 (configuration not stated)	.	-0.47
Cc1ccsc1/C=C/NC(=O)Nc1ccc(F)cc1F	.	-0.77

Gathered by group, the compounds so far containing a furan ring, fused or not (7)
SMILES	TAR Tat displ	CDC25B CDK2 inh
O=C(Nc1ccc(S(=O)(=O)c2ccc(NC(=O)c3ccco3)cc2)cc1)c1ccco1	0.52	.
CN(c1ccc(F)cc1)S(=O)(=O)N1CCCC(C(=O)NCc2ccco2)C1 (configuration not stated)	3.7	.
CCC(C(=O)NCCc1ccco1)n1nc(C)c2sc3ccccc3c2c1=O (configuration not stated)	-2	-0.76
Cc1cc2c(cc1S(=O)(=O)N(C)Cc1ccco1)OCC(=O)N2	1.8	.
CC1CCN(c2ccc3nnc(CCC(=O)NCc4ccc(CN5CCOCC5)o4)n3n2)CC1	0.57	.
Cc1occc1-c1nnc(SCC(=O)c2ccc(Oc3ccccc3)cc2)o1	-2	-1.2
Cc1ccc(CNS(=O)(=O)c2ccc3[nH]c4c(c3c2)CCCCC4)o1	1.9	.

(further entries)
SMILES	TAR Tat displ	CDC25B CDK2 inh
O=C(Nc1c(F)cc(F)cc1Br)c1cnn(-c2ccc(F)cc2)c1-n1cccc1	-0.28	.
CCOC(=O)COc1ccc2c(=O)c(Oc3ccccc3Br)c(C(F)(F)F)oc2c1	0.05	-0.61
O=C1CC(c2cc3c(cc2Br)OCO3)C2=C(CCCC2=O)N1 (configuration not stated)	0.54	-0.51
CCc1ccc(Oc2c(C(F)(F)F)oc3c(CN(C)C)c(O)ccc3c2=O)cc1	0.45	-1.6
Cc1cc(=O)n2[nH]c(CCc3ccccc3)nc2n1	1.9	2.4
CS(=O)(=O)n1nccc1-c1ccc(Oc2cccc(Cl)c2C#N)cc1	.	-0.93
Cc1cccc(-c2nc(S(=O)(=O)c3ccccc3)c(N3CCOCC3)o2)c1	0.97	-1.3
CC1(C)CC(=O)c2cnc3[nH]n(-c4ccccc4)c(=O)c3c2C1	-0.39	-7.6
COc1ccc(OC)c(NC(=O)c2cc(=O)c3ccccc3o2)c1	0.84	0.05
Cc1nn(CC(=O)NCc2ccco2)c(=O)c2cc3ccccc3n12	1	-0.8
Cc1ccc(-c2csc3ncn(Cc4ccco4)c(=O)c23)cc1	-1.3	-1.8
CCOc1cc(/C=C2\SC(=S)N(C)C2=O)ccc1OCCOc1cc(C)ccc1C	.	-2.2
COC(=O)Cn1nc(-c2ccccc2)c2ccccc2c1=O	0.05	-1.3
COc1ccc(C)cc1-n1nnc(-c2nc(-c3ccc(F)cc3)no2)c1N	0.32	.
CCc1cc2c(=O)n(CC(=O)O)cnc2s1	1.1	-0.52
Cc1ccc(-c2n[nH]c3c2C(c2ccc(Cl)cc2)NC3=O)cc1 (configuration not stated)	1	.
Cc1nc(NC(CC(C)C)C(=O)O)c2nc(C)oc2n1 (configuration not stated)	.	-1.5
CC(=O)N1N=C(c2[nH]c3ccc(Br)cc3c2C)OC1c1ccccc1 (configuration not stated)	2.6	.
CCOC(=O)C1CCN(S(=O)(=O)c2cccc3cccnc23)CC1	1.1	0.23
Cc1ccc(CNc2nc(Nc3ccc(F)cc3)c3cnn(C)c3n2)cc1	-0.17	.
CCOC(=O)c1c(NC(=O)Cc2cccs2)sc(C(=O)N2CCOCC2)c1C	0.78	-1.6
Clc1nc(SCc2ccccc2)nc2ccccc12	1.2	-1.3
COc1ccc(OC)c(Nc2nc(-c3c(C)nc4cc(C)ccn34)cs2)c1	1.6	-1.5
CCC(C)NC(=O)c1cnn2c3c(cnc12)CCCC3 (configuration not stated)	0.1	.
CCOC(=O)c1snc(-c2ccc(Cl)cc2)c1N	2	-1.8
CCc1nnc(SCC(=O)Nc2ccc(F)cc2F)c2cc3sc(C)cc3n12	2.2	.
CN(Cc1cc(=O)n2ccsc2n1)c1ccccc1	-0.78	.
O=C(NC1(C(F)(F)F)C(=O)Nc2c1c(=O)[nH]c(=O)n2-c1ccc(F)cc1)c1ccncc1 (configuration not stated)	.	-0.42
N/C(=N\NC(=O)c1cccnc1)c1ccccn1	.	-2.1
COc1ccc(SCCCC(=O)Nc2sc3c(c2C(N)=O)CCC3)cc1	0.15	.
Cn1ccc2cc(S(=O)(=O)N3CCN(C(=O)Nc4ccc5c(c4)OCO5)CC3)ccc21	1.3	.
